# FGF22 binding – binders of recombinant human FGF22 by thermal shift; actives 1.5% (n = 340,000); AID 651658; SYPRO orange fluorescence; percent of sucrose octasulfate shift, DMSO zero; calls only at 9.99 µM;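 active = melting point raised past a set limit in the mean and every replicate; three in four hits are not shown here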
# Target sequence (Q9HCT0 whole entry, looked up): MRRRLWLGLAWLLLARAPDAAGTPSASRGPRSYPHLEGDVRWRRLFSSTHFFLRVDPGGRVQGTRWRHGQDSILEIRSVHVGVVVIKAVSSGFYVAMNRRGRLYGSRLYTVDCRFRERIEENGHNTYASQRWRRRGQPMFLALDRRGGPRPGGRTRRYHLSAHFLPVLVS
# Calls only; i = inactive.
FGF22 binding,structure
i,C[C@H](CO)N1C[C@H](C)[C@@H](CN(C)Cc2cncnc2)Oc2cc(C#CC3CCCC3)ccc2S1(=O)=O
i,COc1ccc(NC(=O)N(C)C[C@@H]2Oc3c(NC(=O)Nc4ccc5c(c4)OCO5)cccc3C(=O)N([C@H](C)CO)C[C@H]2C)cc1
i,C[C@H]1CN([C@@H](C)CO)C(=O)Cc2cc(NC(=O)Cc3cn(C)c4ccccc34)ccc2O[C@@H]1CN(C)C
i,O=C(O)C1=C[C@@H](C2CCCC2)C[C@@H](OCCCCO)O1
i,C[C@H](CO)N1C[C@H](C)[C@H](CN(C)C(=O)Cc2ccccn2)Oc2ncc(-c3cncnc3)cc2C1=O
i,C[C@H]1CN([C@@H](C)CO)C(=O)c2cccc(NS(=O)(=O)c3cn(C)cn3)c2O[C@H]1CN(C)Cc1ccc(Cl)c(Cl)c1
i,CO[C@H](CN(C)Cc1cc(F)ccc1F)[C@@H](C)CN([C@H](C)CO)S(=O)(=O)c1ccc(Cl)cc1
i,CCC(=O)N(C)C[C@@H]1Oc2cc(C#CC3CC3)ccc2S(=O)(=O)N([C@@H](C)CO)C[C@@H]1C
i,CCC(=O)N1CC2(C1)CN(S(=O)(=O)c1ccccc1)[C@@H](CO)c1[nH]c3cc(OC)ccc3c12
i,CCC(=O)Nc1ccc2c(c1)C(=O)N(C)[C@@H]1CC[C@@H](CC(=O)NCC3CCCCC3)O[C@@H]1CO2

# The list goes on; it opens with the five that closed the last part.
FGF22 binding,structure
i,C[C@H]1CN([C@@H](C)CO)C(=O)c2cccc(NS(=O)(=O)c3cn(C)cn3)c2O[C@H]1CN(C)Cc1ccc(Cl)c(Cl)c1
i,CO[C@H](CN(C)Cc1cc(F)ccc1F)[C@@H](C)CN([C@H](C)CO)S(=O)(=O)c1ccc(Cl)cc1
i,CCC(=O)N(C)C[C@@H]1Oc2cc(C#CC3CC3)ccc2S(=O)(=O)N([C@@H](C)CO)C[C@@H]1C
i,CCC(=O)N1CC2(C1)CN(S(=O)(=O)c1ccccc1)[C@@H](CO)c1[nH]c3cc(OC)ccc3c12
i,CCC(=O)Nc1ccc2c(c1)C(=O)N(C)[C@@H]1CC[C@@H](CC(=O)NCC3CCCCC3)O[C@@H]1CO2
i,C[C@@H]1CN([C@@H](C)CO)C(=O)c2cc(C3=CCCCC3)cnc2O[C@@H]1CN(C)Cc1ccccn1
i,C[C@@H]1CN([C@@H](C)CO)S(=O)(=O)c2ccc(C#CC3CC3)cc2O[C@H]1CN(C)Cc1cccnc1
i,C[C@@H]1CN([C@H](C)CO)C(=O)Cc2cc(NC(=O)c3ccncc3)ccc2O[C@H]1CN(C)Cc1ccc(Cl)c(Cl)c1
i,O=C(CN1CCOCC1)NCC[C@H]1CC[C@@H](NS(=O)(=O)c2ccc(Cl)cc2)[C@@H](CO)O1
i,COc1cccc(-c2ccc([C@H]3[C@@H](C#N)N(C(=O)Cc4ccccc4)[C@@H]3CO)cc2)c1
i,COc1ccc(S(=O)(=O)N(C)C[C@@H]2Oc3c(NS(=O)(=O)c4ccc(C)cc4)cccc3C(=O)N([C@@H](C)CO)C[C@@H]2C)cc1
i,C/C=C/c1ccc2c(c1)O[C@H](CN(C)Cc1cccc(F)c1)[C@H](C)CN([C@@H](C)CO)S2(=O)=O
i,COc1ccc(S(=O)(=O)Nc2ccc3c(c2)C(=O)N([C@H](C)CO)C[C@H](C)[C@@H](CN(C)C(=O)Nc2ccc4c(c2)OCO4)OCCCC[C@H](C)O3)cc1
i,COc1ccc(CN2CC3(CN(C(=O)Cc4ccncc4)C3)c3c([nH]c4cc(OC)ccc34)[C@@H]2CO)cc1
i,C[C@@H]1CN([C@@H](C)CO)C(=O)c2cc(NC(=O)Nc3ccc(C(F)(F)F)cc3)ccc2O[C@H]1CN(C)C

# Part of the list above in order of count of non-hydrogen atoms, lowest first.
FGF22 binding,structure
i,O=C(O)C1=C[C@@H](C2CCCC2)C[C@@H](OCCCCO)O1
i,CCC(=O)N1CC2(C1)CN(S(=O)(=O)c1ccccc1)[C@@H](CO)c1[nH]c3cc(OC)ccc3c12
i,CCC(=O)Nc1ccc2c(c1)C(=O)N(C)[C@@H]1CC[C@@H](CC(=O)NCC3CCCCC3)O[C@@H]1CO2
i,C[C@@H]1CN([C@H](C)CO)C(=O)Cc2cc(NC(=O)c3ccncc3)ccc2O[C@H]1CN(C)Cc1ccc(Cl)c(Cl)c1

# The list goes on.
FGF22 binding,structure
i,CCC(=O)N(C)C[C@@H]1Oc2ncc(C3=CCCC3)cc2C(=O)N([C@H](C)CO)C[C@H]1C
i,COc1ccccc1CNC(=O)C[C@@H]1C[C@@H]2c3cc(NC(=O)C4CCOCC4)ccc3O[C@@H]2[C@H](CO)O1
i,CO[C@@H](CN(C)S(=O)(=O)c1ccc(Cl)cc1)[C@H](C)CN(C(=O)Nc1ccccc1F)[C@H](C)CO
i,CN1CCN(C(=O)c2cc3c(c(-c4cccc(-c5cccc(F)c5)c4)n2)[C@@H](CCO)N(S(=O)C(C)(C)C)C3)CC1 (stereo partly specified)
i,CC(C)NC(=O)N(C)C[C@H]1OCCCC[C@H](C)Oc2ccc(NS(=O)(=O)c3ccccc3)cc2C(=O)N([C@@H](C)CO)C[C@H]1C
i,C[C@H]1CN([C@@H](C)CO)C(=O)c2cc(NC(=O)Cc3cn(C)c4ccccc34)ccc2O[C@@H]1CN(C)C(=O)Nc1ccccc1
i,CN(C)Cc1cn(CC[C@@H]2CC[C@H](NC(=O)Nc3ccc4c(c3)OCO4)[C@H](CO)O2)nn1
i,C[C@H](CO)N1C[C@H](C)[C@H](CN(C)C(=O)Nc2ccc(F)cc2)Oc2ncc(-c3cccc(C(F)(F)F)c3)cc2C1=O
i,COc1ccc(NC(=O)N(C)C[C@@H]2Oc3ccc(NC(=O)Nc4ccc(C(F)(F)F)cc4)cc3C(=O)N([C@@H](C)CO)C[C@@H]2C)cc1
i,Cc1noc(C)c1NC(=O)Nc1ccc2c(c1)CC(=O)N([C@@H](C)CO)C[C@@H](C)[C@H](CN(C)S(=O)(=O)c1cn(C)cn1)O2

# More structures.
FGF22 binding,structure
i,COc1ccc(NC(=O)N(C)C[C@H]2OCCCC[C@@H](C)Oc3ccc(NS(=O)(=O)c4ccc(OC)cc4)cc3C(=O)N([C@H](C)CO)C[C@@H]2C)cc1
i,O=S(=O)(c1cccc(F)c1)N1CC[C@@H]2[C@H](CO)Nc3ccc(Br)cc3[C@@H]21
i,CCN1[C@H](C(=O)N(C)C)[C@@H](CO)[C@@H]2Cn3c(ccc(C4=CCCC4)c3=O)[C@@H]21
i,C[C@@H](O)C#Cc1ccc2c(c1)O[C@H](CN(C)Cc1ccc(-c3ccccc3)cc1)[C@@H](C)CN([C@@H](C)CO)S2(=O)=O
i,CCC(=O)N1[C@@H](CO)[C@H](c2ccccc2)C12CN(C(=O)c1ccc(F)cc1)C2
i,COc1ccc([Si](C)(C)[C@@H]2[C@@H](CCn3cc([C@H](O)c4ccccc4)nn3)O[C@]3(C(=O)N(Cc4cccc(N5CCC5=O)c4)c4ccccc43)[C@H]2C)cc1
i,CN1C(=O)c2cc(NS(C)(=O)=O)ccc2OC[C@H]2O[C@@H](CC(=O)NCc3ccccc3)CC[C@@H]21
i,O=C(C[C@H]1C[C@H]2c3cc(NC(=O)Cc4ccncc4)ccc3O[C@H]2[C@@H](CO)O1)NCCN1CCCCC1
i,C[C@@H]1CCCCO[C@@H](CN(C)C(=O)Nc2cccc3ccccc23)[C@H](C)CN([C@H](C)CO)C(=O)c2cc(NS(=O)(=O)c3cn(C)cn3)ccc2O1
i,Cc1ccc(S(=O)(=O)N(C)C[C@@H]2Oc3ncc(-c4ccncc4)cc3C(=O)N([C@H](C)CO)C[C@H]2C)cc1

# Remaining list, next part.
FGF22 binding,structure
i,O=C(C[C@H]1C[C@@H]2c3cc(NC(=O)C4CCC4)ccc3O[C@@H]2[C@H](CO)O1)NCc1ccncc1
i,CC(C)NC(=O)N(C)C[C@H]1Oc2ccc(NC(=O)Cn3cnnn3)cc2CC(=O)N([C@@H](C)CO)C[C@H]1C
i,CC(C)CC#Cc1cnc2c(c1)C(=O)N([C@@H](C)CO)C[C@@H](C)[C@@H](CN(C)Cc1cccc(F)c1)O2
i,COc1ccc(S(=O)(=O)Nc2cccc3c2O[C@H](CN(C)S(=O)(=O)c2cn(C)cn2)[C@H](C)CN([C@@H](C)CO)C3=O)cc1
i,COc1cccc(-c2cnc3c(c2)C(=O)N([C@@H](C)CO)C[C@@H](C)[C@H](CN(C)Cc2ccc(C(=O)O)cc2)O3)c1
i,C[C@@H]1CN([C@@H](C)CO)C(=O)c2cc(C#C[C@@H](C)O)cnc2O[C@@H]1CN(C)CC1CCOCC1
i,COC(=O)C1=C(C)N(Cc2ccccc2)C(=S)NC1c1ccc(-c2ccccc2)cc1 (stereo unspecified)
i,CC(C)NC(=O)N(C)C[C@H]1Oc2ncc(C#Cc3ccncc3)cc2C(=O)N([C@H](C)CO)C[C@@H]1C
i,C[C@@H]1CN([C@@H](C)CO)C(=O)c2cc(NC(=O)Cc3cn(C)c4ccccc34)ccc2O[C@@H]1CN(C)C
i,O=C(C[C@H]1C=C[C@@H](NC(=O)C2CC2)[C@H](CO)O1)NCc1ccncc1

# Further structures
FGF22 binding,structure
i,C[C@H]1CN([C@@H](C)CO)C(=O)c2cc(NC(=O)Cn3cnnn3)ccc2O[C@@H]1CN(C)C(=O)NC1CCCCC1
i,COc1cc2c(cc1O)C=[N+](Cc1cc3c(cc1Br)OCO3)CC2
i,CCO[C@H]1OC(C(=O)N2CCCC2)=C[C@@H](c2ccc3c(c2)OCO3)[C@@H]1CCCO
i,O=C(C[C@H]1CC[C@@H]2[C@H](COC[C@H](O)CN2Cc2ccc(C(F)(F)F)cc2)O1)N1CCc2ccccc2C1
i,CC(C)NC(=O)Nc1ccc2c(c1)C(=O)N([C@@H](C)CO)C[C@H](C)[C@@H](CN(C)S(=O)(=O)c1cn(C)cn1)O2
i,CO[C@@H]1CC[C@@H]2CCN(C)C(=O)CC3(CCCCC3)CN(C)C(=O)c3cc(C#N)ccc3OC[C@H]1O2
i,Cc1ccc(S(=O)(=O)Nc2ccc3c(c2)C(=O)N([C@@H](C)CO)C[C@H](C)[C@H](CN(C)S(=O)(=O)c2ccc(F)cc2)OCCCC[C@@H](C)O3)cc1
i,CCN1[C@@H]2c3ccc(-c4ccc(OC)cc4)c(=O)n3C[C@H]1[C@H](CO)[C@H]2C(=O)NCC1CC1
i,Cc1noc(C)c1NC(=O)N(C)C[C@@H]1Oc2ccc(N(C)C)cc2CC(=O)N([C@H](C)CO)C[C@H]1C
i,Cc1noc(C)c1S(=O)(=O)Nc1ccc2c(c1)C(=O)N([C@H](C)CO)C[C@@H](C)[C@H](CN(C)C(=O)C1CCCCC1)OCCCC[C@@H](C)O2

# Other compounds follow:
FGF22 binding,structure
i,Cc1ccc(S(=O)(=O)Nc2cccc3c2O[C@@H](CN(C)CC2CCCCC2)[C@H](C)CN([C@H](C)CO)C3=O)cc1
i,COc1ccc(NC(=O)N(C)C[C@H]2OCCCC[C@H](C)Oc3ccc(NS(=O)(=O)c4cccs4)cc3C(=O)N([C@@H](C)CO)C[C@H]2C)cc1
i,C[C@@H]1CN([C@@H](C)CO)C(=O)c2cc(NC(=O)CCN3CCOCC3)ccc2O[C@H]1CN(C)Cc1ccc2c(c1)OCO2
i,O=C(C[C@H]1CC[C@H]2[C@@H](COC[C@@H](O)CN2C(=O)c2cccnc2)O1)NCC1CC1
i,CNC[C@@H]1Oc2ncc(-c3cccc(C(=O)N(C)C)c3)cc2C(=O)N([C@@H](C)CO)C[C@H]1C
i,C[C@@H]1CN([C@@H](C)CO)S(=O)(=O)c2ccc(-c3ccc(F)cc3)cc2O[C@@H]1CN(C)Cc1ccccc1C(=O)O
i,COc1ccccc1NC(=O)N1C[C@@H]2[C@H](c3ccccc31)[C@H](CO)N2Cc1ccc2c(c1)OCO2
i,COc1ccc(CN(C)C[C@@H]2OCCCC[C@H](C)Oc3ccc(NC(=O)Cc4ccccc4)cc3C(=O)N([C@H](C)CO)C[C@@H]2C)cc1
i,COCC(=O)Nc1ccc2c(c1)OC[C@H](C)N(C(=O)COC)C[C@H](C)[C@H](OC)CN(C)C2=O
i,CCC(=O)N(C)C[C@H]1Oc2cc(C#Cc3ccncc3)ccc2S(=O)(=O)N([C@H](C)CO)C[C@@H]1C

# 3 of the compounds above, bar-delimited.
canonical_smiles | FGF22 binding
CO[C@@H](CN(C)S(=O)(=O)c1ccc(Cl)cc1)[C@H](C)CN(C(=O)Nc1ccccc1F)[C@H](C)CO | i
CN1CCN(C(=O)c2cc3c(c(-c4cccc(-c5cccc(F)c5)c4)n2)[C@@H](CCO)N(S(=O)C(C)(C)C)C3)CC1 (stereo partly specified) | i
CC(C)NC(=O)N(C)C[C@H]1OCCCC[C@H](C)Oc2ccc(NS(=O)(=O)c3ccccc3)cc2C(=O)N([C@@H](C)CO)C[C@H]1C | i

# (more compounds)
FGF22 binding,structure
i,CCC(=O)N[C@H]1C=C[C@@H](CC(=O)NCCN2CCCCC2)O[C@@H]1CO
i,C[C@@H]1CN([C@@H](C)CO)C(=O)c2cccc(N(C)C)c2O[C@H]1CN(C)Cc1ccc(-c2ccccc2)cc1
i,C[C@H]1CN([C@@H](C)CO)C(=O)c2cc(NS(C)(=O)=O)ccc2O[C@H]1CN(C)S(=O)(=O)c1cccs1
i,CC(C)NC(=O)N(C)C[C@H]1OCc2ccccc2-c2c(n(C)c3ccccc23)C(=O)N([C@@H](C)CO)C[C@@H]1C
i,C[C@H](CO)N1C[C@H](C)[C@@H](CN(C)Cc2cncnc2)Oc2cc(C3=CCCCC3)ccc2S1(=O)=O
i,O=C(C[C@@H]1C[C@H]2c3cc(NC(=O)Nc4ccc(C(F)(F)F)cc4)ccc3O[C@H]2[C@@H](CO)O1)NCc1ccc(Cl)cc1
i,COCC(=O)N(C)C[C@@H]1Oc2ncc(-c3ccccc3C)cc2C(=O)N([C@H](C)CO)C[C@@H]1C
i,COCC(=O)Nc1ccc2c(c1)C(=O)N(C)[C@H]1CC[C@@H](CC(=O)NCCc3ccccc3)O[C@H]1CO2
i,C[C@H]1CN([C@@H](C)CO)S(=O)(=O)c2ccc(-c3ccccc3)cc2O[C@H]1CN(C)C(=O)Nc1ccccc1F
i,C[C@H]1CCCCO[C@H](CN(C)C(=O)Nc2ccc3c(c2)OCO3)[C@@H](C)CN([C@@H](C)CO)C(=O)c2cc(NC(=O)c3ccccc3)ccc2O1
i,COc1ccccc1CNC(=O)C[C@H]1C=C[C@H](NC(C)=O)[C@@H](CO)O1
i,O=C(C[C@H]1C=C[C@@H](NC(=O)c2ccccc2)[C@H](CO)O1)NCCc1ccncc1

# Screening results: PubChem, Broad Institute

# Not all compounds are listed, so the mix of outcomes need not match the whole.
